Source: PubChem
E coli growth: E. coli growth inhibition, primary screen, OD600; Escherichia coli growth, 23 h; stronger effect = lower value; 330,000 tested, 0.21% active; OD600 absorbance (test concentration not listed); AID 1053175, 2014;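 active = OD600 absorbance below the run mean of sample wells minus 3.6 SD, in any replicate, cut at about 0.56 in these data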;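 note: stock transfer was 300 nL into about 60 µL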
UCH37 DUB inh: inhibitors of human UCH37 deubiquitinase, primary screen, biochemical, Ub-AMC cleavage, fluorescence; Ubiquitin carboxyl-terminal hydrolase isozyme L5 (Homo sapiens), Q9Y5K5; purified proteasome/UCH37; inhibition, % (test concentration not listed); 330,000 tested, 0.33% active; AID 588478, 2011;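 active = mean of two replicates above 20%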;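 note: 0% = compound-free wells with enzyme and 100% = wells lacking proteasome; stock transfer was 100 nL into about 20 µL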
Target sequence (Q9Y5K5 whole entry, looked up): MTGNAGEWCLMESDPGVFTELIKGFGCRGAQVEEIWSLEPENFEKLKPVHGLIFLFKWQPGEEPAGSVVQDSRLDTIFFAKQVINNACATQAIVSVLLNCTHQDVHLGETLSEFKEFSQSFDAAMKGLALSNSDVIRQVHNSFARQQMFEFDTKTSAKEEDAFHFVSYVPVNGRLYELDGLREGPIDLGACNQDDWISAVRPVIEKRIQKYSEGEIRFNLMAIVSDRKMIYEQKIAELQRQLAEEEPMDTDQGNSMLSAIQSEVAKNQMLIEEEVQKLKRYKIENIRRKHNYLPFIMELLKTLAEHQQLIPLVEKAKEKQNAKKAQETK
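assay system = human UCH37 enzyme supplied as purified proteasome complex | amount = proteasome at 0.15 nM in the dispensed enzyme solution | schedule = 30 min compound-proteasome preincubation then 25 min substrate reaction, room temperature | measured by = fluorescence, ex 355 nm, em 460 nm | benchmarks = no-proteasome wells (full inhibition) and compound-free wells (no inhibition)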
Beta2AR agonist: beta2AR agonists driving receptor internalization, primary screen, cell-based, FAP fluorogen, flow cytometry; Beta-2 adrenergic receptor (Homo sapiens), P07550; Am2.2-beta2AR cells; reference of the scale not given here; response, % (concentration not given with the values); 340,000 tested, 0.43% active; AID 504454, 2011;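 active = response above a set limit, near 3 SD of response in nonfluorescent compounds, cut at about 42% in these data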;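 note: stock transfer was 100 nL into about 11 µL; a reference agonist was the positive control; negative values mostly stem from fluorescent compounds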
LANA-H2B inh: blockers of LANA interaction with H2A/H2B – biochemical, FP readout, HTS, primary screen | cell-free LANA-H2A/H2B peptide, fluorescence polarization | inhibition, % (concentration not given with the values) | 320,000 tested, 0.6% active | AID 2629, 2010; in the data active = inhibition mostly above about 10%, no sharp cut-off; inactive = mostly below about 6.7%;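 note: stock transfer was 7.5 nL into about 10 µL; 0% = median of vehicle wells and 100% = median of positive control wells; one replicate is shown; the record names a cut of 25% in any replicate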
FGF22 binding: binders of human FGF22 protein, primary screen, FGF22 synaptogenesis inhibitor project, biophysical, thermal shift, single point; recombinant FGF22 thermal shift, SYPRO orange fluorescence; percent of sucrose octasulfate shift, DMSO zero; Fibroblast growth factor 22 (Homo sapiens), Q9HCT0; calls only at 9.99 µM; AID 651658, 2012; 340,000 tested, 1.5% active;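 active = melting point raised past a set limit in the mean and every replicate; three in four hits are not shown here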
Target sequence (Q9HCT0 whole entry, looked up): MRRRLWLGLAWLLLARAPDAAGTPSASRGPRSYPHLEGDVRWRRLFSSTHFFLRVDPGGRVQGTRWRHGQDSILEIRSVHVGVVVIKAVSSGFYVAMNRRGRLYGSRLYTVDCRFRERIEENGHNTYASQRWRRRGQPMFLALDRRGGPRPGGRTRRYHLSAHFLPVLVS
HNF4A DNA FP: change in binding of human HNF4A to DNA, primary screen, biochemical, fluorescence polarization, FITC-DNA. 1 h. 360,000 tested, 0.3% active. activity change, % at 10 µM. AID 1224865, 2016. Hepatocyte nuclear factor 4-alpha (Homo sapiens), P41235; in the data active = activity change above about 30%, passing the limit was not always enough;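 note: controls were the assay level and a saturating level of protein; the project sought stronger binding though the title names inhibitors; some compounds called inactive have numbers as strong as hits; positive values seem to mean higher polarization but the record does not say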
ALR H2O2 inh: inhibitors of human ALR sulfhydryl oxidase, primary screen, biochemical, H2O2 detection, HRP-luminol luminescence, single point; FAD-linked sulfhydryl oxidase ALR (Homo sapiens), P55789; AID 485317, 2010; 290,000 tested, 3.8% active; purified ALR, DTT oxidation; inhibition, % (test concentration not listed);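 active = mean and each replicate at 75% or more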;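 note: stock transfer was 7.5 nL into about 7.5 µL; 0% = neutral wells and 100% = wells with inactivated enzyme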
Target sequence (P55789 whole entry, looked up): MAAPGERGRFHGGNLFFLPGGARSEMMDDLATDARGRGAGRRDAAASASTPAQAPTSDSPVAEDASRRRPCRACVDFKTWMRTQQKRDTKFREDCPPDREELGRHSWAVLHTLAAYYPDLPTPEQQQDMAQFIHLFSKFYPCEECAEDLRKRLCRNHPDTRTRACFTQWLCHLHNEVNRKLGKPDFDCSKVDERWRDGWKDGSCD
The depositor's hits bear a star; i = inactive; nt = no result given. An excerpt; the hit share may differ from the screen's.

SMILES	E coli growth	UCH37 DUB inh	Beta2AR agonist	LANA-H2B inh	FGF22 binding	HNF4A DNA FP	ALR H2O2 inh
CCC(Oc1ccccc1)C(=O)OCC(=O)N(CC)c1c(N)n(Cc2ccccc2)c(=O)[nH]c1=O (stereo unspecified)	0.68	1.6	-12	1.7	i	-3.7	nt
CC(C)C(=O)NC(=S)Nc1ccccn1	0.74	-0.1	-1	-5.1	nt	-0.4	16
COc1ccc(C(O)(C2CCCCC2)C(CN2CCOCC2)c2ccccc2)cc1 (stereo unspecified)	0.67	-1.1	10	-0.8	i	0.8	4
O=C(NCCc1ccncc1)Nc1ccccc1	0.7	0.9	-4	0.1	nt	0.6	-16
FC(F)(F)c1nc(-c2ccccc2)ncc1-c1nnnn1-c1ccccc1	0.67	2.7	-1	-4.2	i	1.7	-7
COc1ccc(OC)c(NC(=O)N2CCCC(C)C2)c1 (stereo unspecified)	0.68	0.8	6	6.1	i	-0.8	-6
CC(O)(C#CCN1CCCCCC1)c1ccccc1 (stereo unspecified)	0.68	1.3	-8	1.0	i	1.4	5
COc1ccccc1NC(=O)COC(=O)/C=C/c1cccs1	0.69	0.2	0	-1.3	i	8.1	39
N/N=C(/Cc1nc2ccccc2[nH]1)c1ccc([N+](=O)[O-])cc1	nt	nt	7	7.0	i	0.4	nt
CC1CN(c2nc3ccccn3c(=O)c2C=O)CC(C)O1 (stereo unspecified)	0.7	7.5	-1	3.0	i	2.4	nt
Cc1ccnc(NC(=O)/C=C/c2ccccc2Cl)c1	0.65	-1.3	11	3.3	i	0.9	2
Cc1ccn(-c2ccc([N+](=O)[O-])cc2)n1	0.6	8.8	5	3.1	nt	-3.9	-5
COCCNC(=O)c1cccc2c1-c1ccccc1C2=O	0.65	3.1	5	0.9	i	2.3	-14
CCOC(=O)Cc1nnc(NC(=O)CSc2nnc3c(n2)[nH]c2ccccc23)s1	nt	nt	-20	-5.4	i	-2.0	-10
COc1ccc(CCNCC2C(Oc3ccc(Cl)cc3)C(=O)N2c2ccccc2C)cc1OC (stereo unspecified)	0.67	2.9	-12	-1.0	i	2.1	-8
O=S1(=O)CCOC[C@H](CC2CCCCC2)N1Cc1cccc(C(F)(F)F)c1	nt	0.9	9	-0.3	i	3.9	nt
Cn1c(SCC(=O)Nc2ccc(Cl)cn2)nnc1C1CC1	0.68	1.5	-2	-2.5	i	-1.1	-8
Cc1ccc(C(=O)NC(=S)N2CCN(c3ccc([N+](=O)[O-])cc3)CC2)cc1	0.66	4.4	11	-1.0	nt	-0.8	-1
O=C(NC12CC3CC(CC(C3)C1)C2)c1ccc([N+](=O)[O-])cc1	0.64	2.3	7	-0.6	i	0.0	-3
O=C(NCCN=C1NS(=O)(=O)c2ccccc21)c1ccccc1	0.65	5.5	3	0.4	i	-3.7	nt
COc1cccc(/C=N/c2nc3ccccc3n2C)c1O	nt	nt	1	-3.0	i	5.9	-17
Cc1ccc(N2CCN(C(=O)c3nn(C)c4c3CS(=O)(=O)c3ccccc3-4)CC2C)cc1 (stereo unspecified)	0.69	0.6	10	1.5	i	0.9	35
CCOc1ccc(-c2cccc(NS(=O)(=O)c3ccccc3[N+](=O)[O-])c2)nn1	0.69	3.6	11	3.6	i	2.2	-9
CCN(CCNC(=O)CN1CCN(Cc2ccc(Cl)cc2)C1=O)c1ccccc1	0.74	2.8	8	1.1	nt	-0.3	98*
CCC1CCCCN1C(=O)c1ccc(OC)c(OC2CCN(C(C)=O)CC2)c1 (stereo unspecified)	0.71	1.9	1	nt	i	0.4	nt

No new results follow: an excerpt of the list.
SMILES	E coli growth	UCH37 DUB inh	Beta2AR agonist	LANA-H2B inh	FGF22 binding	HNF4A DNA FP	ALR H2O2 inh
CC(O)(C#CCN1CCCCCC1)c1ccccc1 (stereo unspecified)	0.68	1.3	-8	1.0	i	1.4	5
COc1ccccc1NC(=O)COC(=O)/C=C/c1cccs1	0.69	0.2	0	-1.3	i	8.1	39
N/N=C(/Cc1nc2ccccc2[nH]1)c1ccc([N+](=O)[O-])cc1	nt	nt	7	7.0	i	0.4	nt

The list continues.
SMILES	E coli growth	UCH37 DUB inh	Beta2AR agonist	LANA-H2B inh	FGF22 binding	HNF4A DNA FP	ALR H2O2 inh
Cc1nn(C(=O)c2cccc([N+](=O)[O-])c2)c(C)c1Sc1ccccc1	0.73	0.5	3	-2.0	nt	1.1	1
CSCC(C)N1CCC(n2nccc2NC(=O)CCc2ccccc2)CC1 (stereo unspecified)	0.71	2.8	3	nt	i	-8.2	nt
COc1ccc(CCNC2=C(Cl)C(=O)N(CCc3ccccc3)C2=O)cc1OC	0.74	-9.2	15	2.6	nt	0.1	-4
Cc1n[nH]c(=O)nc1NCCc1ccccc1	0.7	4.7	2	-0.2	nt	-0.1	-7
O=[N+]([O-])c1ccccc1/C=N/n1c(C2CCCCC2)n[nH]c1=S	nt	nt	-8	2.0	nt	0.0	97*
O=C1CSC(c2ccccn2)N1c1ccccc1F (stereo unspecified)	0.69	3.2	-5	nt	i	-2.9	nt
CNC(=S)N1CCN(c2ccc(Cl)c(Cl)c2)CC1	0.68	1.3	6	-5.1	i	-5.2	nt
O=C(CSc1nc2ccccc2c(=O)n1-c1ccccc1)NCC1CCCO1 (stereo unspecified)	0.71	-0.2	-5	6.3	i	-2.4	9
Cc1c(/C=C2\NC(=O)NC2=O)c2ccccc2n1C	0.62	9.7	-1	1.6	i	-4.0	98*
COc1ccc(N(C)S(=O)(=O)c2cccc(C(=O)OCC(=O)NCc3ccccc3OC)c2)cc1	0.69	4.2	6	-0.9	i	1.2	nt
FC(F)(F)c1cc(CCN2CCNC[C@@H]2Cc2ccccc2)cc(C(F)(F)F)c1	nt	0.3	32	5.7	i	1.5	-3
CCOC(=O)c1c(C2COc3ccccc3O2)csc1NC(=O)c1ccccc1 (stereo unspecified)	0.79	-179	0	-2.5	nt	2.6	-3
Cc1ccc(C(=O)N/C(=C/c2ccc(-c3cccc([N+](=O)[O-])c3)o2)C(=O)NCCCN(C)C)cc1	0.7	17	2	0.1	i	1.1	-6
O=C1CC(C(=O)O)C2(CCCC2)O1 (stereo unspecified)	0.73	5.0	3	-0.3	nt	3.2	-2
COc1ccc(OC)c(C2NC(=O)N(C)C(C)=C2C(=O)OCc2ccccc2)c1 (stereo unspecified)	0.65	0.3	-12	10	i	-4.8	-7
Cc1cc(N2CCCCC2)nc2ccc(NC(=O)CCC(=O)NCCC(C)C)cc12	0.71	-137	-13	1.1	nt	-4.2	6
CCC(C)NC(=O)c1ccc2nc(Cc3ccc(OC)cc3)oc2c1 (stereo unspecified)	0.72	1.3	-6	-1.4	i	1.4	nt
Cc1ccc(Cl)cc1NC(=O)CN1C(=O)COc2ccc(S(=O)(=O)N3CCOCC3)cc21	0.7	3.6	3	0.5	i	2.5	-3
O=C(O)CCNS(=O)(=O)c1ccccc1C(F)(F)F	0.69	4.2	-2	-6.1	i	-1.1	-7
CC1=C(c2ccccc2)CCC1=O	0.65	6.7	-1	-1.3	i	0.9	nt
COc1ccc(C(=O)NCc2nnc(SCC(=O)Nc3ccccc3OC)o2)cc1	0.65	1.0	-3	1.3	i	0.5	-3
O=C(NCc1cccs1)C1CCC(CNS(=O)(=O)c2cccs2)CC1 (stereo unspecified)	0.78	2.0	-3	2.2	nt	4.7	-4
O=C1Nc2ccccc2OC1CC(=O)N1CCOCC1 (stereo unspecified)	0.74	6.6	-2	-2.5	i	2.3	45
Cc1ccc(-c2c[n+](CC(=O)c3ccc(Br)cc3)c3n2CCCCC3)cc1	0.7	5.6	11	-7.0	nt	2.1	-25
CC1(CCc2ccccc2)NC(=O)N(CC(=O)Nc2ccccc2)C1=O (stereo unspecified)	0.71	1.6	-1	3.1	i	0.7	-5

The last two entries of the part before lead into the next.
SMILES	E coli growth	UCH37 DUB inh	Beta2AR agonist	LANA-H2B inh	FGF22 binding	HNF4A DNA FP	ALR H2O2 inh
Cc1ccc(-c2c[n+](CC(=O)c3ccc(Br)cc3)c3n2CCCCC3)cc1	0.7	5.6	11	-7.0	nt	2.1	-25
CC1(CCc2ccccc2)NC(=O)N(CC(=O)Nc2ccccc2)C1=O (stereo unspecified)	0.71	1.6	-1	3.1	i	0.7	-5
CCN(CC)c1ccc(NC(=O)CN2CCN(CC(=O)Nc3ccccc3F)CC2)cc1	0.8	1.6	4	7.1	nt	-0.8	99*
Cc1ccc(S(=O)(=O)Nc2ccccc2N2CCOCC2)cc1	0.71	4.4	-1	-13	i	0.8	-2
CC(C)CC(CCc1ccccc1)OS(N)(=O)=O (stereo unspecified)	0.69	0.7	-3	-1.3	i	-1.7	0
CC(C)(C)c1cc(C(=O)N/N=C/c2ccccn2)n[nH]1	nt	nt	0	-2.0	i	0.4	nt
COc1ccc(S(=O)(=O)N(CC(=O)N2CCN(c3ccccc3)CC2)c2ccccc2)cc1	0.71	7.5	0	-0.3	nt	2.6	3
CCN(Cc1ccncc1)C(=O)Cc1cccs1	0.65	0.2	2	-0.6	i	-2.9	-1
CS(=O)(=O)N(CC(=O)NCCc1ccccc1)C1CCCCC1	0.72	-3.6	-1	-2.3	nt	2.9	nt
COc1cc(CNC(C)(C)CO)ccc1OCC(=O)NC(C)(C)C	0.7	0.6	6	-5.3	nt	-1.3	-6
Clc1ccccc1/C=N/Nc1cc(N2CCOCC2)ncn1	nt	nt	4	-1.5	i	-2.0	14
COCCN1Cc2cccc(C(=O)Nc3cc(C)cc(C)c3)c2C1=O	0.7	-8.9	-3	-5.3	nt	-1.2	-6
COc1cc(CC(=O)NCc2ccco2)cc(OC)c1OC	0.7	5.7	-3	2.0	nt	0.0	-7
Cc1cn2c(=O)c(C(=O)N3CCN(c4ccccc4Cl)CC3)cnc2s1	0.64	3.6	-1	-2.2	i	1.7	1
CN(C)S(=O)(=O)c1ccc(N2CCN(S(=O)(=O)c3ccc(F)cc3)CC2)c(Cl)c1	0.72	1.1	-5	0.7	nt	0.1	-1
O=C(c1ccc(Br)cc1)c1cc2ccc(O)cc2oc1=O	0.63	4.9	6	4.1	i	5.9	97*
Cc1ccc(CS(=O)(=O)CCC(=O)NCc2ccccc2Cl)cc1	0.68	4.7	-1	-0.7	i	4.0	0
CC1CN(c2nc(-c3ccccc3)nnc2-c2ccccc2)CC(C)O1 (stereo unspecified)	0.66	5.4	-3	-4.4	nt	-1.2	-5
C[C@H](CO)N1C[C@H](C)[C@@H](CN(C)C(=O)Nc2ccc3c(c2)OCO3)Oc2c(NC(=O)C3CC3)cccc2C1=O	0.7	0.9	2	nt	i	3.2	nt
O=C(COC(=O)c1ccc2ncsc2c1)NCc1ccccc1Cl	0.69	-1.7	4	-2.5	i	2.2	3
O=C(N/N=C/c1ccc(N2CCOCC2)cc1)c1ccc(NS(=O)(=O)c2cccs2)cc1	nt	nt	-6	-0.5	i	0.3	17
O=C(O)/C=C/c1ccc(S(=O)(=O)NCc2cccnc2)cc1	0.7	3.5	2	-0.2	i	0.4	-6
CCOc1cccc(C2C(C(=O)c3ccc(C)o3)=C(O)C(=O)N2c2nccs2)c1 (stereo unspecified)	0.76	5.0	7	15*	nt	-45	12
Cc1nnc(NC(=O)NCN2C(=O)C3C4C=CC(C4)C3C2=O)s1 (stereo unspecified)	0.69	4.2	1	-2.5	nt	-2.4	-4
COC(=O)c1ccc(OC(=O)N2CCOCC2)cc1	0.66	1.1	-6	4.4	i	-2.9	-5
NC(N)=Nc1nc(-c2ccccc2)c2cc(F)ccc2n1	0.68	-89	5	-1.5	i	-0.8	-8
Cc1ccc(C(C)C)c(OCC(=O)Nc2ccc(Cl)cn2)c1	0.74	3.6	2	4.4	nt	-2.2	1
Cc1ccccc1OCC(=O)OCC(=O)NCc1ccccc1Cl	0.7	1.8	-2	0.1	i	-0.4	-1
